NPYLR7 ag: agonists of mosquito NPYLR7 receptor, primary screen, cell-based, Aedes aegypti, calcium fluorescence, mosquito biting behavior | actives 0.15% (n = 270,000) | activation, % at 10 µM | HEK293T NPYLR7/Galpha15, GCaMP6s calcium fluorescence | AID 1259423, 2018; in the data active = activation above about 40%;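 also: 0% = vehicle and 100% = reference agonist at the receptor; some compounds past the cut are filed as inactive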
NPYLR7 ag max-min: second read-out of NPYLR7 ag, no call of its own (marks repeat the call); activation, %; measured here: Max-Min RFU normalised activation; some inactives read as strong as hits;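 span of the calcium signal over five minutes; 0% = vehicle and 100% = native peptide agonist; compound fluorescence can raise it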
* hit, by the source's call. These rows are one share of the data; count on the stated rates, not on these rows.

SMILES | NPYLR7 ag | NPYLR7 ag max-min
C=CCN(Cc1nc2sc(C)c(C)c2c(=O)[nH]1)CC(O)COc1ccccc1C (stereo not drawn) | 4 | 7
c1ccc(C2CCCCN2Cc2ccc3c(c2)OCCO3)nc1 (stereo not drawn) | 7 | 0
CN(CC(O)c1ccccc1F)C(c1ccccc1)c1ccccc1 (stereo not drawn) | 2 | 0
CCOc1ccc(-n2nnc3c(N4CCNCC4)ncnc32)cc1 | -4 | -5
COc1nc(-c2ccccc2C)n(-c2ccc(NC(=O)c3ccc([N+](=O)[O-])cc3Cl)cc2)n1 | 12 | 13
CC(COc1ccccc1Cc1ccccc1)N1CCCCC1 (stereo not drawn) | -12 | -19
C=c1ccsc1=C1N=C(NC(=O)/C=C/c2ccncc2)NN1 | 13 | 11
C#CCN(Cc1ccco1)C(=O)CC1(c2ccccc2OC)CC(=O)N(C)C1=O (stereo not drawn) | 2 | -1
COc1ccc(C(C)(C)CNC(=O)N2CCCC2)cc1OC | 1 | -1
FC(F)(F)c1cccc(CNCc2c(Cl)nc3ccccn23)c1 | -8 | -8
COc1ccccc1C1=NN(C(=O)CN2CCCCC2C)C(c2cccc(F)c2)C1 (stereo not drawn) | -8 | -1
CC(C)c1nn(-c2cccc(Cl)c2)c(C(C)C)c1C(=O)NCC1CCCO1 (stereo not drawn) | -3 | -15

The closing 3 entries of the part above open the next one.
SMILES | NPYLR7 ag | NPYLR7 ag max-min
FC(F)(F)c1cccc(CNCc2c(Cl)nc3ccccn23)c1 | -8 | -8
COc1ccccc1C1=NN(C(=O)CN2CCCCC2C)C(c2cccc(F)c2)C1 (stereo not drawn) | -8 | -1
CC(C)c1nn(-c2cccc(Cl)c2)c(C(C)C)c1C(=O)NCC1CCCO1 (stereo not drawn) | -3 | -15
O=C(NC1CCN(c2ccccc2C(=O)N2CCN(C3CCCCCC3)CC2)CC1)c1cccc(F)c1 | -10 | 11
O=c1c2ccccc2nc(SCc2cc(=O)n3ccccc3n2)n1CC1CCCO1 (stereo not drawn) | 5 | 2
O=C(c1ccc(Cn2cccn2)o1)N1CC(c2ccncc2)C1 | 10 | 0
Cc1noc(C)c1C(=O)NCC1Cc2ccccc21 (stereo not drawn) | -16 | -21
CC(=O)COc1cc(C)c2c(c1)oc(=O)c1ccccc12 | -1 | -4
O=C(c1cncc(-c2ccc(-c3ccn[nH]3)cc2)n1)N1CCCCC1 | 9 | 6
CCCN(C)C(=O)c1c(C)c(N2CCOCC2)c(C)n1Cc1c(F)cccc1F | 21 | 22
Cc1cc(N(C)C)nc(Nc2ccc(NS(=O)(=O)c3ccc4nc(C)sc4c3)cc2)n1 | 12 | 5
CN(C)CCC(=O)OC1CCCCC1S(=O)(=O)Cc1ccc(Cl)cc1 (stereo not drawn) | -1 | -3
CCn1c(CNc2cc(C(=O)OC)ccc2F)nc2cc(S(=O)(=O)N3CCCCC3)ccc21 | -1 | 9
CO[C@H]1CN(C(=O)c2c(-c3ccccc3)ccnc2C)CC[C@H]1N | -2 | 13
O=c1[nH]c(-c2ccnc(Oc3ccccc3Cl)c2)nc2ccsc12 | -2 | -5
CCn1nc(C)c(Br)c1Nc1ccc(Br)cc1 | 8 | 3
CC(CN)OC(=O)C1CCNCC1 (stereo not drawn) | 2 | 2
COCCn1c(N2CCN(Cc3ccccc3Cl)CC2)nc2c1c(=O)[nH]c(=O)n2C | 8 | 7
COc1ccccc1OCC(=O)Oc1coc(CSc2ncccn2)cc1=O | -11 | -5
CS(=O)(=O)c1cccc(-c2nnc(NC(=O)/C=C/c3ccccc3)o2)c1 | 11 | 6
Cc1ccoc1C(=O)Nc1c(C)cnn1Cc1ccc(Cl)cc1 | -1 | -13
O=C(c1cn(CCN2CCCCC2)nn1)N1CCN(Cc2ccc3c(c2)OCO3)CC1 | -3 | -4
O=C(c1nn(CCOc2ccccc2)c2ccccc12)N1CCN(C(=O)C2CCCO2)CC1 (stereo not drawn) | -4 | 5
CN(CCCNC(=O)CCSCc1nc2sc3c(c2c(=O)[nH]1)CCC3)c1ccccc1 | -4 | -6
O=C(CCC1CCCN(Cc2ccc3nonc3c2)C1)NCc1ccccc1Cl (stereo not drawn) | 4 | 3
COc1cccc(CC2CN(c3ccc(-c4ccccc4)nn3)CCO2)c1 (stereo not drawn) | -5 | -4
Cc1nc2nc3ccn(NC(=O)c4cccnc4)c(=O)c3c(-c3ccccc3)n2n1 | 1 | -1
Cc1cccc(C(C)C)c1NC(=O)CCNC(=O)c1cccs1 | 13 | 8
CC(C)CN(C1CC1)S(=O)(=O)c1cc(S(C)(=O)=O)ccc1Br | 1 | 9
CN(C)S(=O)(=O)c1cc(C(=O)N2CCC23CCC3)ccc1Cl | -6 | -7
CCOC(=O)C1=C(C)N(C)C(=S)NC1c1ccc(NC(=O)Nc2cccc3ccccc23)cc1 (stereo not drawn) | 5 | 14
Cc1ccc(C)c(C(C)NC(=O)Cc2nc(-c3ccncc3)n[nH]2)c1 (stereo not drawn) | 8 | 6
CS(=O)(=O)c1cccc(C(=O)N(CCCN2CCOCC2)c2nc3ccc(F)cc3s2)c1 | -6 | -10
Cc1cc(-c2ccccc2)o[n+]1C(C)c1ccccc1 (stereo not drawn) | -4 | -5
O=S(=O)(NC1=NCCCCC1)c1ccccc1Cl | -3 | -3
Cc1ccc(N2C(=O)C3C4CC(C3C2=O)C2C4Sc3[nH]c(=O)sc3[C@@H]2c2ccccc2O)cc1 (stereo partly drawn) | 16 | 11
Cc1oc(-c2ccc(C(F)(F)F)cc2)nc1CN1CCCCC1CO (stereo not drawn) | 5 | 10
N#CCCN(CCC#N)c1nncs1 | -11 | -19
Cc1ccc(Br)cc1S(=O)(=O)N1CC(C(N)=O)Cc2ccccc21 (stereo not drawn) | -2 | -2
O=C(c1ccc2ccccc2n1)N1CCc2c(nc(-c3ccccc3)[nH]c2=O)C1 | 0 | 1
CCOC(=O)C1(C)CCCCN1C(=O)c1ccoc1 (stereo not drawn) | 0 | -3
COc1ccc(-n2nc3c(c2NC(=O)C2CC(=O)N(c4ccccc4)C2)CS(=O)(=O)C3)cc1 (stereo not drawn) | -4 | -9
Nc1cc(S(=O)(=O)C(F)(F)F)ccc1[N+](=O)[O-] | 1 | -1
O=C(CSc1nc(=O)n2ccccc2n1)Nc1cccc2ccccc12 | 1 | -2
Cc1cccn2c(=O)cc(CSc3nc4ccsc4c(=O)[nH]3)nc12 | 15 | 7
NC(=N/N=C\c1cc(Br)cc(Br)c1O)c1nonc1N | 3 | 3
C=CCCC(O)CN(Cc1ccsc1)Cc1ccco1 (stereo not drawn) | 10 | 20
OC(c1ccc(-c2ccccc2)cc1)c1ncc(-c2ccc(F)cc2)[nH]1 (stereo not drawn) | 0 | 1
Cc1ccc2n(n1)c(=O)c(Cc1ccccc1)c(O)[n+]2-c1ccccc1 | 6 | 9
CCN(CC)CCN(C(=O)C1=COCCO1)c1nc2c(OC)ccc(OC)c2s1 | -5 | -9
CC1C(=O)N(CC(O)COc2cccc(Br)c2)C(=O)N1c1ccccc1 (stereo not drawn) | 2 | 6
O=C(NC1CCCCCC1)c1ncn[nH]1 | 2 | 4
CN(Cc1ccccc1CN1CCCC1)C(=O)c1cn(-c2ccccc2)nn1 | 2 | 6
CCN(CC(=O)Nc1nc(C2CC2)no1)Cc1ccc(Cl)s1 | 12 | 11
CCOC(=O)Cc1c(C)nc2ncnn2c1N1CCN(c2ccc(C(F)(F)F)cc2)CC1 | 28 | 15
CCOc1ccc(C(O)=C2C(=O)C(=O)N(CCN(C)C)C2c2cccc(OC)c2OC)cc1 (stereo not drawn) | -2 | 5
CCCOc1ccc(C(F)(F)F)cc1NCc1ncc(C)o1 | 4 | -5
Cc1cccc(C(=O)Nc2cccc(S(=O)(=O)N3CCOCC3)c2)c1 | -6 | -8
Cc1nn(C)c(C)c1-c1ccnc(NCc2ccc3c(c2)n(C)c(=O)n3C)n1 | -1 | 2
O=C(NC1CCN(c2ccc(OC(F)(F)F)cc2)CC1)N1CCC1 | 0 | -3
Nc1n[nH]c(Cc2ccccc2)n1 | -10 | -19
Cc1ccc(C(=O)NCC(c2ccc(F)cc2)N2CCOCC2)s1 (stereo not drawn) | -15 | -19
O=C1CCC(C(=O)N2CCCC(CCc3ccc(F)c(F)c3)C2)=NN1 (stereo not drawn) | 4 | 1

Rewritten as a markdown table: four of the compounds above.
| SMILES | NPYLR7 ag | NPYLR7 ag max-min |
| --- | --- | --- |
| Cc1ccc(C(=O)NCC(c2ccc(F)cc2)N2CCOCC2)s1 (stereo not drawn) | -15 | -19 |
| CCOc1ccc(C(O)=C2C(=O)C(=O)N(CCN(C)C)C2c2cccc(OC)c2OC)cc1 (stereo not drawn) | -2 | 5 |
| CCN(CC(=O)Nc1nc(C2CC2)no1)Cc1ccc(Cl)s1 | 12 | 11 |
| CN(Cc1ccccc1CN1CCCC1)C(=O)c1cn(-c2ccccc2)nn1 | 2 | 6 |

Already shown: entries from further up.
SMILES | NPYLR7 ag | NPYLR7 ag max-min
O=C(NC1CCCCCC1)c1ncn[nH]1 | 2 | 4
CN(Cc1ccccc1CN1CCCC1)C(=O)c1cn(-c2ccccc2)nn1 | 2 | 6
CCN(CC(=O)Nc1nc(C2CC2)no1)Cc1ccc(Cl)s1 | 12 | 11
CCOC(=O)Cc1c(C)nc2ncnn2c1N1CCN(c2ccc(C(F)(F)F)cc2)CC1 | 28 | 15

Going on with the list:
SMILES | NPYLR7 ag | NPYLR7 ag max-min
CCn1nc(-c2nn3c(C(C)C)nnc3s2)cc1C | -1 | -1
COc1ccccc1C(=O)Nc1ccc(-c2c(C(C)C)[nH]n(-c3ccccc3C)c2=O)cc1 | 26 | 23
CCOc1ccc2ccccc2c1C(=O)NCc1nnnn1-c1ccc(C)c(C)c1 | 15 | 11
COc1cc(OC)cc(C(=O)NCc2nnc(SCc3ccc(F)cc3)n2-c2ccc([N+](=O)[O-])cc2)c1 | 19 | 21
CCOC(=O)C1=C(C)NC2=C(C(=O)CC(C)(C)C2)C1c1coc2ccccc2c1=O (stereo not drawn) | -3 | -3
COc1ccc(NC(=O)NCc2nnc(SCc3ccccc3C)n2-c2cc(Cl)ccc2Cl)cc1 | 4 | 15
CCc1cc(=O)n(CC(=O)Nc2cccc(C)c2)c(-n2nc(C)cc2C)n1 | 0 | -2
Cc1ccc(C(=O)N2CCN(c3ccc(Br)cc3)C(=O)C2C)cc1 (stereo not drawn) | 0 | 3
CCCCNC(=O)COC(=O)c1ccc(S(=O)(=O)N2CCCCCC2)cc1 | 3 | 1
CCc1nc2c(OCc3ccc(Cl)cc3)cccn2c1N(C)C(=O)C(C)C | 6 | 9
COCCN(Cc1ccsc1)CC(O)COc1ccccc1C (stereo not drawn) | 18 | 27
COCC(NC(=O)NC1CC(C)N(c2ccccc2)C1)c1ccco1 (stereo not drawn) | -7 | -6

Compounds from the list above that contain bromine:
SMILES | NPYLR7 ag | NPYLR7 ag max-min
CCn1nc(C)c(Br)c1Nc1ccc(Br)cc1 | 8 | 3
CC(C)CN(C1CC1)S(=O)(=O)c1cc(S(C)(=O)=O)ccc1Br | 1 | 9
Cc1ccc(Br)cc1S(=O)(=O)N1CC(C(N)=O)Cc2ccccc21 (stereo not drawn) | -2 | -2
NC(=N/N=C\c1cc(Br)cc(Br)c1O)c1nonc1N | 3 | 3
CC1C(=O)N(CC(O)COc2cccc(Br)c2)C(=O)N1c1ccccc1 (stereo not drawn) | 2 | 6
Cc1ccc(C(=O)N2CCN(c3ccc(Br)cc3)C(=O)C2C)cc1 (stereo not drawn) | 0 | 3

Continued:
SMILES | NPYLR7 ag | NPYLR7 ag max-min
CCN(Cc1ccncc1)C(=O)c1ccc(-c2cccc(C(F)(F)F)c2)s1 | 24 | 30
C=CCN=C(NC(=O)c1cccs1)OCC | 9 | 10
O=C(C1CCN(c2ncnc3sccc23)CC1)N1CCCCCC1 | 9 | 7
COc1cccc(CNC(=O)C2CCN(C(=O)[C@@H](Cc3ccccc3)NC(=O)c3cc(C)nn3C)CC2)c1 | -3 | 15
O=C(c1ccc2c(c1)OCO2)N1CCC2(CCCN(CC3CCC3)C2=O)C1 (stereo not drawn) | -4 | -6
Clc1ccc(C2CC(c3ccc(Cl)cc3)n3nnnc3N2)cc1 (stereo not drawn) | 1 | 31
O=C(C1CC2CCCCC2N1C(=O)c1ccc(F)cc1)N1CCN(c2ccccc2)CC1 (stereo not drawn) | 1 | -3
CCN(C(=O)Nc1ccccc1C(F)(F)F)C(C)c1nc2ccccc2c(=O)n1-c1ccc(C)cc1C (stereo not drawn) | 4 | 21
CCN(CC)CCN(C(=O)c1cccc(N2C(=O)CCC2=O)c1)c1nc2c(F)cc(F)cc2s1 | 3 | 0
CCCn1c(C)c(C)n2c3c(=O)n(CCN4CCOCC4)c(=O)n(C)c3nc12 | -1 | 1
CC1CN(C(=O)CSc2nc3ccccc3c(=O)n2Cc2ccco2)CC(C)O1 (stereo not drawn) | 2 | 0
CC(NC(=O)C1=NN(c2ccccc2)C(=O)CC1)c1ccc(C#N)cc1 (stereo not drawn) | 1 | 0
CC(=O)N1CCN(CCOc2ccc(C3CCN(C4=Nn5c(nnc5C(F)(F)F)CC4)CC3)cc2)CC1 | -6 | -9
COc1ccc(C(=O)N2CCSC23CCN(C(=O)c2ccc(C(C)(C)C)cc2)CC3)cc1 | 16 | 17
CNS(=O)(=O)c1ccc(CCc2nn3c(C(C)C)nnc3s2)cc1 | -1 | -2
CCc1ccc(S(=O)(=O)N2CCN(c3nc(C)cc(Nc4ccccc4)n3)CC2)cc1 | 9 | 1
Cc1cc(N)n(CCO)n1 | 3 | 10
Cc1cccn2c(=O)nc(SCC(=O)NCc3ccc(F)cc3)nc12 | 8 | 7
CC(C)N(C)Cc1ccc(CN)cc1 | -3 | -2

Screens from PubChem BioAssay.
